Bioassay records (PubChem BioAssay)
eIF4H inh – human eIF4H binding inhibitors, primary screen, translation initiation inhibitor project, biochemical, uHTS, fluorescence polarization; eIF4H fluorescence polarization binding assay; inhibition, % at 35 µM; 290,000 compounds, 0.94% hits; AID 2012, 2009;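 active means 50% or more with normal probe brightness, or confirmed in later tests; inconclusive means above 50% with abnormal brightness, or retests that disagree; inactive means below 50% or failed in later tests; about a fifth of its hits are not listed in these tables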;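 further: calls also rest on retests at 20 µM and on dose response follow-up; 0% = protein and probe with vehicle and 100% = probe without protein; strong numbers were not always called active; many hits fall short of the cut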
PABP polyA inh – PABP poly(A) RNA binding inhibitors, primary screen, biochemical, fluorescence polarization, uHTS. Polyadenylate-binding protein 1 (Homo sapiens), P11940. inhibition, % at 35 µM. 290,000 compounds, 1% hits. AID 2014, 2009;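 active means 50% or more with normal probe brightness, or confirmed in later tests; inconclusive means above 50% with abnormal brightness, or retests that disagree; inactive means below 50% or failed in later tests; about a fifth of its hits are not listed in these tables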;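 further: calls also rest on retests at 20 µM and on dose response follow-up; controls were probe without protein and protein plus probe with vehicle; some compounds called inactive have numbers as strong as hits; many hits fall short of the cut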
Target sequence (P11940 whole entry, looked up): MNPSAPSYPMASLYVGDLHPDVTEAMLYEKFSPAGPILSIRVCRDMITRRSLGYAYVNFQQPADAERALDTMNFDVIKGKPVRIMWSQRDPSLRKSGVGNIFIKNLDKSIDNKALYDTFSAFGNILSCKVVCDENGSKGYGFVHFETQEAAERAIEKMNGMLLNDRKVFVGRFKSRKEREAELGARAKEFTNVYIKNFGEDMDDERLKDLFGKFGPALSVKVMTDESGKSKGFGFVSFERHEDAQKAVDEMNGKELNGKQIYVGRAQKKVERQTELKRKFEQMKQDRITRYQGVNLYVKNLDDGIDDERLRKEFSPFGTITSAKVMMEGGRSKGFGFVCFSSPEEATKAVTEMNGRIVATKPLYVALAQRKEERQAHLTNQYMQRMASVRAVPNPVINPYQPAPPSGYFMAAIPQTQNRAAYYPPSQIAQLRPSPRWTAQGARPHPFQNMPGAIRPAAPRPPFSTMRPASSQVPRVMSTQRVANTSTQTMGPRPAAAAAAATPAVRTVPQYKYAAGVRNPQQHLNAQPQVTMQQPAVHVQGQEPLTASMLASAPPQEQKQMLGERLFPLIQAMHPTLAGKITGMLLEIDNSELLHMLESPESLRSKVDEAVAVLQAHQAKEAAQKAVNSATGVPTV
Yeast UUG start – modulators of yeast start codon fidelity, primary screen, whole organism, S. cerevisiae, single point, plate reader; S. cerevisiae UUG-firefly luciferase reporter, luminescence/redox ratio; activity score, % at 18.7 µM; 350,000 compounds, 0.13% hits; AID 602363, 2012;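 active means replicate mean at a twofold rise or more, about +100% in these data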;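 further: firefly luciferase made from a UUG start codon reports start codon fidelity; reporter light over untreated wells divided by growth signal over untreated wells; some hits fall short of that in this replicate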
HIV Env fusion – inhibitors of HIV-1 Env-driven cell-cell fusion, primary screen, HeLa-JRFL effector, CEM21 target cells, luciferase; inhibition, % at 12.3 µM; 360,000 compounds, 1.1% hits; AID 651610, 2012;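 active means mean replicate inhibition score of at least 50 and every replicate individually at or above 50; inconclusive means only one of the two criteria met; inactive means mean below 50 and not all replicates reaching 50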;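 further: 0% = plate neutral controls and 100% = maraviroc near 300 nM; one replicate is shown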
Rce1 inhib – yeast Rce1p protease inhibitors, primary screen, biochemical, fluorescence, cell-free homogeneous; CAAX prenyl protease 2 (Saccharomyces cerevisiae (strain ATCC 204508 / S288c)), Q03530; yeast membranes, quenched prenylated peptide cleavage fluorescence; calls only; 290,000 compounds, 0.27% hits; AID 2563, 2010;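 active means fall in fluorescence gain of 50% or more versus controls, with final raw signal at or below 3038400; inconclusive means same 50% fall but final raw signal above 3038400; inactive means fall in fluorescence gain under 50%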;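 further: plate controls were neutral control wells for no effect and wells lacking membranes for full effect; tested at 10 µM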
CSC inhib – cancer stem cell viability inhibitors, primary screen, luminescence; cancer stem cell-like cells viability; 300,000 compounds, 1.1% hits; inhibition, % at 7.5 µM;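 active means mean at 75% or more and at least half the replicates too; inconclusive means mean and replicates disagree; tested in HMLE shEcad cells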;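 further: 0% = median of negative and 100% = median of positive control wells; the first replicate is given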
MT1-MMP act inh – blockers of MT1-MMP proenzyme processing, primary screen, HT1080 RFP-PRO-GFP cells, GFP/RFP fluorescence; Matrix metalloproteinase-14 (Homo sapiens), P50281; GFP/RFP ratio fluorescence, overnight; percent of plate control window, DMSO zero; GFP/RFP ratio change, % at 20 µM; 360,000 compounds, 0.061% hits; AID 651647, 2012;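 active means GFP/RFP ratio change of at least 30% with cell ATP level not reduced by more than half and red fluorescence within 50% of control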; further: strong numbers were not always called active
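Assay system: HT1080 cells carrying an RFP-PRO-GFP reporter | Dosing: Single dose of 20 µM compound, 1% DMSO final | Incubation: Cells overnight before dosing, compound overnight, 37 °C, 5% CO2 | Evaluation: GFP/RFP fluorescence ratio | Control set: DMSO and RFP-L50D-GFP cell wells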
MT1-MMP act inh RFP – further read-out of MT1-MMP act inh, marked with its call; RFP signal change, %; measured here: RFP expression control read;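 0 = vehicle wells; hits needed this value within 50% of zero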
Starred values were filed as active, the others as inactive; i = inactive; ? = inconclusive; . = not tested or not shown; + = active, no number. Outcome played no part in choosing rows; 3% or so of the library scored in one or more.

SMILES | eIF4H inh | PABP polyA inh | Yeast UUG start | HIV Env fusion | Rce1 inhib | CSC inhib | MT1-MMP act inh | MT1-MMP act inh RFP
N#Cc1cccc(NC(=O)C2SC(=Nc3ccccc3)C(C(=O)N3CCOCC3)=C2N)c1 (stereo not drawn) | -6 | 1 | . | -2 | i | 0 | -2 | 0
Cn1ncc2c(N3CCN(c4ccccc4F)CC3)ncnc21 | -7 | -8 | . | -41 | i | 9 | -2 | -6
Nc1c(C(=O)CSc2nccn2-c2cccc(F)c2)c(=O)[nH]c(=O)n1C1CC1 | . | . | -16 | . | . | -13 | -2 | 0
COc1ccc(OCCSc2nc3ccccc3n2CC(=O)O)cc1 | -10 | -4 | 1 | . | i | -3 | 1 | 2
CCC1CCc2c(sc(N)c2C(N)=O)C1 (stereo not drawn) | . | . | -12 | . | i | 6 | -10 | -10
S=C(Nc1ccccc1)Nc1nc2ccccc2n1CCOc1ccc(Cl)cc1 | 6 | -2 | . | 20 | i | + | 9 | -3
O=C(NNS(=O)(=O)c1ccccc1F)c1cccc(S(=O)(=O)N2CCOCC2)c1 | -2 | 2 | -17 | 9 | i | -6 | 1 | 6
CC(C)c1ccc(NC(=O)c2cccnc2)cc1 | -5 | -6 | -20 | . | i | 8 | -6 | 5
CCOC(=O)c1ccc(NC(=S)N(CCCN(CC)CC)Cc2ccco2)cc1 | -1 | 5 | -31 | 21 | i | 53 | 1 | 1
CCOc1ccc(-c2cc(N3C(=O)Nc4ccccc4N3O)n[nH]2)cc1 | -1 | -13 | . | 11 | i | -12 | 1 | -2
C/C(=N\NC(=S)Nc1ccccc1)C1Cc2ccccc2C(=O)O1 (stereo not drawn) | 11 | 8 | -22 | 2 | i | -16 | 0 | 3
CCCCNC(=O)C(=O)NCC1CCCN1S(=O)(=O)c1cccs1 (stereo not drawn) | . | . | 12 | -16 | i | 2 | 2 | 4
CCCCc1nc(NCCN)c(C#N)c2c1CSC(C)(C)C2 | -16 | -4 | . | . | i | -12 | -4 | -7
Cn1nc(C(=O)Oc2cc(=O)n(C)c3ccccc23)c2ccccc2c1=O | -6 | 8 | . | 22 | i | -7 | -2 | 4
Cc1ccc(CNC(=O)c2ccc(S(=O)(=O)N3CCCCCC3)cc2)cc1 | . | . | 26 | -7 | . | . | -4 | -2

A second format for some results above.
SMILES: C/C(=N\NC(=S)Nc1ccccc1)C1Cc2ccccc2C(=O)O1 (stereo not drawn)
  eIF4H inh: 11 | PABP polyA inh: 8 | Yeast UUG start: -22 | HIV Env fusion: 2 | Rce1 inhib: i | CSC inhib: -16 | MT1-MMP act inh: 0 | MT1-MMP act inh RFP: 3

SMILES: Nc1c(C(=O)CSc2nccn2-c2cccc(F)c2)c(=O)[nH]c(=O)n1C1CC1
  eIF4H inh: . | PABP polyA inh: . | Yeast UUG start: -16 | HIV Env fusion: . | Rce1 inhib: . | CSC inhib: -13 | MT1-MMP act inh: -2 | MT1-MMP act inh RFP: 0

SMILES: CCCCNC(=O)C(=O)NCC1CCCN1S(=O)(=O)c1cccs1 (stereo not drawn)
  eIF4H inh: . | PABP polyA inh: . | Yeast UUG start: 12 | HIV Env fusion: -16 | Rce1 inhib: i | CSC inhib: 2 | MT1-MMP act inh: 2 | MT1-MMP act inh RFP: 4

Later entries.
SMILES | eIF4H inh | PABP polyA inh | Yeast UUG start | HIV Env fusion | Rce1 inhib | CSC inhib | MT1-MMP act inh | MT1-MMP act inh RFP
NC1=NC[C@@H](CC2CCCCC2)N1CCc1cc(C(F)(F)F)cc(C(F)(F)F)c1 | . | . | 4 | . | . | 139* | -19 | -21
COCCN(CCOC)S(=O)(=O)c1ccc(C(=O)Nc2ccncc2)cc1 | -7 | 0 | -19 | 13 | i | -11 | 4 | -2
Cc1ccc(-c2csc3ncn(C(C)C(=O)O)c(=O)c23)cc1 (stereo not drawn) | -2 | -2 | -10 | 10 | i | 1 | -1 | 4
O=S(=O)(c1ccc(F)cc1)N1CCN(c2ccccn2)CC1 | 6 | -8 | . | 4 | i | 2 | 0 | 4
Cc1cccc(C(=O)NC2CCCCCCC2)c1 | -9 | 2 | -5 | -24 | i | . | 1 | -2
O=C1C2CCCCN2C(=O)N1CCCCN1CCN(c2ccc([N+](=O)[O-])cc2)CC1 (stereo not drawn) | 13 | 5 | 5 | . | i | -5 | 5 | -2
COC(=O)c1ccc(Cn2ccc(=O)[nH]c2=O)cc1 | . | . | -5 | 15 | . | . | 0 | 0
CCOC(=O)/C(C#N)=C1\SS/C(=C(/C#N)C(=O)OCC)S1 | -2 | 3 | . | . | i | -10 | . | .
Cn1c(C(=O)NCCc2ccsc2)cc2c(=O)n(C)c3ccccc3c21 | -6 | -3 | -7 | 9 | i | 12 | 8 | 1
Cc1cc(Cl)ccc1C(=O)C1CCCN(C(=O)c2ccc3c(c2)OCO3)C1 (stereo not drawn) | . | . | -23 | -5 | . | . | 2 | -5
C=CCN1CCc2nc(N)sc2CC1 | 14 | 4 | -18 | 8 | . | . | 0 | -2
COc1ccc(Cl)cc1NC(=O)CN(C)C(=O)c1ccc(N2CCCCCC2)c([N+](=O)[O-])c1 | . | . | -7 | 13 | i | -11 | 4 | -15
COc1cccc(NC(=O)CC2COc3ccccc3O2)c1 (stereo not drawn) | -2 | -4 | -11 | . | i | -11 | 2 | -1
CCOc1cc(C)c(S(=O)(=O)NCc2ccccn2)cc1C | -10 | 2 | -10 | 3 | i | -7 | 2 | -2
COCC(=O)N1CCC(Oc2ccc(C(=O)NCCc3ccncc3)cc2)CC1 | -9 | 1 | . | 11 | i | 3 | 1 | 1

Fetched by structure from above, four records:
SMILES | eIF4H inh | PABP polyA inh | Yeast UUG start | HIV Env fusion | Rce1 inhib | CSC inhib | MT1-MMP act inh | MT1-MMP act inh RFP
COCCN(CCOC)S(=O)(=O)c1ccc(C(=O)Nc2ccncc2)cc1 | -7 | 0 | -19 | 13 | i | -11 | 4 | -2
O=C1C2CCCCN2C(=O)N1CCCCN1CCN(c2ccc([N+](=O)[O-])cc2)CC1 (stereo not drawn) | 13 | 5 | 5 | . | i | -5 | 5 | -2
Cc1cccc(C(=O)NC2CCCCCCC2)c1 | -9 | 2 | -5 | -24 | i | . | 1 | -2
CCOC(=O)/C(C#N)=C1\SS/C(=C(/C#N)C(=O)OCC)S1 | -2 | 3 | . | . | i | -10 | . | .

Later entries.
SMILES | eIF4H inh | PABP polyA inh | Yeast UUG start | HIV Env fusion | Rce1 inhib | CSC inhib | MT1-MMP act inh | MT1-MMP act inh RFP
CCn1c(=O)c2c(nc(SCC(=O)NC3CCCC3)n2C)n(C)c1=O | 1 | -5 | -7 | -9 | i | -9 | -4 | 1
S=c1[nH]nc(-c2ccc(Cl)cc2Cl)n1-c1ccc2c(c1)OCCO2 | 5 | 2 | . | -142 | i | -8 | -2 | 0
Cc1cc(C)c2c(NC(=S)Nc3ccccc3)n[nH]c2n1 | 5 | -8 | . | 20 | i | -13 | 3 | -2
CC1(C(=O)NS(=O)(=O)c2ccc(Br)cc2)CCN1C(=O)C1CCCCC1 (stereo not drawn) | . | . | -12 | -9 | . | . | -5 | 1
CC(NS(=O)(=O)c1cc2c3c(c1)CCN3C(=O)CC2)c1ccccc1 (stereo not drawn) | . | . | -24 | 14 | . | . | 0 | 2
NC(=O)CC(NC(=O)c1ccccc1)c1ccc(NCC2CC2)c([N+](=O)[O-])c1 (stereo not drawn) | -6 | 6 | -23 | -3 | i | -2 | 14 | -3
CC(C)C(=O)Nc1cccc(NC(=O)c2cc3ccccc3o2)c1 | -8 | -6 | -13 | -153 | i | -5 | 1 | -2
COc1ccc(C2CC2C(C)=O)cc1 (stereo not drawn) | -5 | -3 | . | 4 | i | -33 | 3 | 6
CC(=O)Nc1ccccc1OCC(=O)c1ccc2c(c1)OCO2 | -12 | 1 | -9 | -93 | i | -1 | 1 | -4
COc1ccc(NC(=O)CN(CC(=O)Nc2ccc(OC)cc2)C(C)(C)CO)cc1 | 4 | -11 | -13 | 15 | i | 43 | -1 | 0
CC(NC(=O)c1noc2c1CCCC2)c1ccccc1 (stereo not drawn) | -10 | -4 | . | 5 | i | -4 | 9 | 3
CNC(=O)c1c(NC(=O)c2cc(-c3cc(C)c(C)cc3O)n[nH]2)sc2c1CCCC2 | -13 | -3 | . | . | i | 15 | . | .
CC(O)CNc1nc2ccccc2n1CC(=O)NCC(F)(F)F (stereo not drawn) | -7 | 12 | . | -7 | i | -8 | -1 | 2
COc1ccc(C(=O)C2CCCN(Cc3ccc(C#CCCO)cc3)C2)c(OC)c1 (stereo not drawn) | -3 | 4 | 3 | -6 | i | 6 | 3 | 1
CCCCN1C(=O)/C(=C/C=C2/CC(C)(C)CN2C)SC1=S | ? | 6 | . | . | i | 74 | -109 | 4
Cc1ccc(/C=N/n2nnnc2N)cc1[N+](=O)[O-] | 0 | -2 | -24 | -55 | i | -13 | 0 | 0
CCc1ccccc1NC(=O)CC1S/C(=N\c2nccs2)N(CC)C1=O (stereo not drawn) | -2 | 1 | -18 | -1 | i | -6 | 3 | -1
O=C(CN(Cc1ccc(F)cc1)C(=O)CCC(=O)Nc1ccccn1)NCc1ccco1 | 7 | 0 | -13 | . | i | 6 | -2 | -6
Cc1c2ccccc2c(C)c2c1ccc1ccccc12 | . | . | 17 | 1 | . | 26 | -1 | -10
O=C(COC(=O)/C=C/c1ccc(Cl)cc1)Nc1ccccc1 | -20 | 45 | -10 | 6 | i | 12 | 0 | 1
CC(=O)NC(CCS(C)(=O)=O)C(=O)Nc1ccc(Cl)c(Cl)c1 (stereo not drawn) | -3 | 14 | 10 | 10 | i | -19 | 5 | 5
CC(C)Oc1ccc(C(=O)Nc2ccc(N3CCCCC3)cc2)cc1 | 4 | -11 | . | 9 | i | 16 | 2 | 0
COC(=O)c1ccc(-c2nc(O)c3cnccn23)cc1 | 4 | -4 | 0 | . | i | -20 | -1 | 1
O=[N+]([O-])c1ccc(O)c(/C=N/Nc2ccc(Cl)nn2)c1 | 4 | -2 | -26 | 82* | . | 107* | 5 | -13
CCCS(=O)(=O)C/C(N)=N/OC(=O)c1ccc(Cl)cc1 | 7 | -4 | -8 | 0 | i | -2 | 2 | 6
COc1ccccc1NC(=O)C(=O)NCC(c1ccco1)N1CCc2ccccc2C1 (stereo not drawn) | . | . | -13 | -15 | i | 32 | -4 | -5
O=[N+]([O-])c1cccc(S(=O)(=O)Nc2ccc(S(=O)(=O)Nc3nccs3)cc2)c1 | -5 | 6 | -9 | -11 | i | -6 | 1 | 3
Cc1ccc2sc(N(CCCN(C)C)C(=O)c3ccc(Br)s3)nc2c1C | -8 | -8 | -5 | -1 | i | 29 | -5 | 3
CCCCN(C(=O)NC(=O)Nc1c(C)cc(C)cc1C)S(C)(=O)=O | -8 | -7 | -13 | . | i | -5 | 1 | 6
Cc1cc(-c2nnnn2-c2ccc(F)cc2)no1 | -7 | 0 | -14 | -10 | i | -4 | 0 | 4
COc1ccc(S(=O)(=O)N2CCOCC2)cc1NC(=O)COc1ccccc1 | . | . | . | -4 | i | -8 | -1 | 1
